Assay outcomes (PubChem)
VDR inh = Inhibitors of the vitamin D receptor (VDR): qHTS; Vitamin D3 receptor (Homo sapiens), P11473; Potency, µM, for inactives: max response, negative = inhibition, actives largely listed as inhibitors; 0.93% of 400,000 active; VDR-SRC2-3 peptide fluorescence polarization, 2 h; active = well fitted inhibition curve with a large enough effect; inconclusive = small, poorly fitted or top-dose-only effect, or another doubt; inactive = no such curve, though single readings can be large or run the other way; also: series mostly up to about 120 µM
Target sequence (P11473 whole entry, looked up): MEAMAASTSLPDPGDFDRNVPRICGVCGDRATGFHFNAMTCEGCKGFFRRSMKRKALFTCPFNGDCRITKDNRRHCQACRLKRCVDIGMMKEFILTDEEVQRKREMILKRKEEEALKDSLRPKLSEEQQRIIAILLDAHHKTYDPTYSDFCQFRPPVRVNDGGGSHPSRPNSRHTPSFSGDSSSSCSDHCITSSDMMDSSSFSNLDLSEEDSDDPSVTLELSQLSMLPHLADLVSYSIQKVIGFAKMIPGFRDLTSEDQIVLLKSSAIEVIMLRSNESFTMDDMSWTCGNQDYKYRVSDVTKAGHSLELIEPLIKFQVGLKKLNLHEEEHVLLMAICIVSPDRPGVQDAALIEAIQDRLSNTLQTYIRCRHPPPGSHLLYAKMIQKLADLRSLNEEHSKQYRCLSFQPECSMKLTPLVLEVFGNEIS
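FP read-out; VDR + SRC2-3 coactivator peptide; 23 nl compound by pintool; 2 h RT incubation; reagents held at 4 deg C, protected from light.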
* hit, by the source's call; ? = inconclusive; & = joins results of further samples; [ ] = dose if it differs, or a comment. % is scaled to controls: 0 for no effect and ±100 for the full control effect; potency is read from the fitted curve at half-maximal effect. This is a subset. The share of hits here may be higher or lower than overall.

structure,VDR inh
COC(=O)Nc1ccc(S(=O)(=O)NCCCCCC(=O)O)cc1,2%
Cc1ccc(S(=O)(=O)N(CC(=O)Nc2ccccc2-c2ccccc2)c2ccc(C)cc2C)cc1,-11%
NC(=O)c1oc2ccc(Cl)cc2c1N,12%
Cc1ccc(Sc2ncccc2COC(=O)NC(C)C)cc1,17%
Cc1n[nH]c(C)c1C(=O)CC1(O)C(=O)N(Cc2ccccc2)c2ccc(Br)cc21 (stereo not drawn),4%
Cc1cccc(N2C(=O)CSC23C(=O)N(CC(=O)Nc2cccc(Cl)c2)c2ccccc23)c1 (stereo not drawn),1%
CCOC(=O)c1sc(NC(=O)CN2C(=O)NC3(CCC(C)CC3)C2=O)c(C(=O)OCC)c1C (stereo not drawn),8%
COc1ccc(C2C(C(=O)c3cccs3)=C(O)C(=O)N2c2cccc(C)n2)cc1OC (stereo not drawn),6%
Cc1cc(C)c(NN=c2c(=O)c3ccccc3c2=O)c(C)c1,-3%
Cc1ccc(NC(=O)C(c2ccccc2)N2CCN(C(=O)c3ccco3)CC2)cc1 (stereo not drawn),-14%
O=C(NC(C(=O)c1ccccc1)n1ccc(=O)[nH]c1=O)c1ccccc1 (stereo not drawn),7%
CCc1ccccc1NC(=O)Nc1nnc(N(CC)c2ccccc2)s1,10%
Cc1nn(-c2ccccc2)c2c1C(c1cccnc1)N1C=C(S(=O)(=O)N3CCCCC3)C=CC1=N2 (stereo not drawn),-6%
Cc1cc(C)n(CCc2nc3c4ccccc4nc(N4CCN(c5ccccc5)CC4)n3n2)n1,-9%
O=c1c(-c2ccc(Cl)cc2)nc2cnc(N3CCOCC3)nc2n1C1CC1,-7%
CC1(C)CC(=O)C2=C(C1)Oc1ncn(CCCn3ccnc3)c(=N)c1C2c1ccccc1 (stereo not drawn),1%
COc1ccc(Cl)cc1NS(=O)(=O)c1cc(-c2cc(C)no2)ccc1C,14%
COc1ccc(/C=C2/SC(=O)N(CC(=O)NCCC(C)C)C2=O)cc1OC,-6%
COc1cc(C(=O)Nc2cc(C)ccn2)cc(OC)c1OC,-8%
COCCCn1c(C)cc(C(=O)COC(=O)CCc2nc3ccccc3c(=O)[nH]2)c1C,3%
O=C(c1ccco1)N1CCN(S(=O)(=O)c2ccc(Cl)s2)CC1,6%
CC1CCC(NC(=O)C2c3ccccc3C(=O)N2CCCN2CCOCC2)CC1 (stereo not drawn),8%
CC(C)(C)C(=O)Nc1ccc(Oc2ccc3c(c2)C(=O)N(c2ccc(O)cc2)C3=O)cc1,-9%
CCOCC(=O)Nc1cc(Cl)ccc1C,0%
O=C(CN1C(=O)C2CC=CCC2C1=O)Nc1ccc(-c2nnc3n2CCCCC3)cc1 (stereo not drawn),16%
N=c1n(CCN2CCCCC2)c2ccccc2n1CC(O)c1ccc(Cl)c(Cl)c1 (stereo not drawn),0%
O=S1(=O)CCOC[C@H](CC2CCCCC2)N1Cc1cccc(Cl)c1,15%
Cc1ccc(S(=O)(=O)CCC(=O)OCC(=O)N2CCN(S(=O)(=O)c3ccc(Cl)cc3)CC2)cc1,4%
CN(C(=O)C1=CC(c2ccc3c(c2)OCO3)=NS(=O)(=O)N1C)c1ccccc1,19%
CCCc1nc2oc3c(NCC4CCCO4)ncnc3c2c2c1COC(C)(C)C2 (stereo not drawn),12%
COC(=O)C12CCC(C)(c3nc4ccccc4nc31)C2(C)C (stereo not drawn),5%
O=C(COc1ccccc1)Nc1ccc(S(=O)(=O)N2CCCC2)cc1,-23%
C=CCN1C(=O)C(CC(=O)Nc2ccccc2)SC1=Nc1ccc(S(N)(=O)=O)cc1 (stereo not drawn),22%
Cc1cc(C)c(NC(=O)CSc2nc(=O)n(Cc3ccncc3)c3c2CCC3)c(C)c1,3%
CC1Cc2ccccc2N1C(=O)CSc1nc(-c2ccco2)cc(C(F)(F)F)n1 (stereo not drawn),-1%
CN(Cc1ccccc1)S(=O)(=O)c1ccc(OCC(=O)NCc2ccncc2)cc1,2%
CC1CN(C(=O)Nc2ccc(F)cc2F)CC(C)O1 (stereo not drawn),-7%
CC(C)C(NC(=O)/C=C/c1ccc(F)cc1)C(C)C,9%
Cc1cc(NC(=O)CSCC(=O)Nc2ccccc2Oc2ccccc2)no1,0%
Cc1cc(C)nc(N/N=C/c2cc3c(cc2[N+](=O)[O-])OCO3)n1,3%
C=CCn1c(=O)/c(=C/c2ccc(O)cc2)s/c1=C(/C#N)c1nnc2n1CCCCC2,10%
S=c1[nH]nc(C2CCCCC2)n1/N=C/c1ccc(Br)cc1,16%
CCOC(=O)c1ccc(NC(=O)c2nc[nH]c2C(=O)N[C@@H](CC(C)C)C(=O)OCc2ccccc2)cc1,10%
Cc1cc[n+](CCc2ccccc2)cc1C,-6%
COC(=O)c1oc2ccccc2c1N,?
O=C(CCCNS(=O)(=O)c1cccc2nsnc12)NCCc1ccccc1,17%
NCCNCCNCCN,10%&-9%
CCCCOc1ccccc1N,12%
CC(=O)c1ccccc1S(=O)(=O)N1CCN(c2nc(-c3cccs3)nc3ccccc23)CC1,-13%
O=C(O)c1cc(=S)nc[nH]1,?
CCOc1ccccc1OCCCC(=O)N(CC)CC(=O)Nc1ccc(NC(C)=O)cc1,3%
COCCCNC(=O)/C(C#N)=C/c1c(N2CCN(C)CC2)nc2ccccn2c1=O,5%
COc1ccccc1Nc1nc(N)nc(CN2CCc3ccccc3C2)n1,16%
O=C(N/N=C\c1ccc(O)c([N+](=O)[O-])c1)c1ccccc1-n1cccc1,7%
O=c1oc(-c2ccc(O)c(O)c2)cc2cccc(O)c12,-5%
O=C(Cc1ccccc1)Nc1ccc(C(=O)Nc2ccccc2C(=O)O)cc1,-14%
CCN(CC)S(=O)(=O)c1ccc2nc(SC)sc2c1,-4%
CN(C)S(=O)(=O)c1cccc(NC(=S)N/N=C/c2ccco2)c1,15%
COc1ccc2cc3cc(C(=O)NCCN4CCc5ccccc5C4)sc3nc2c1,-4%
COc1ccccc1N1CCN(S(=O)(=O)c2cn(C)c(=O)n(C)c2=O)CC1,9%

Next records.
structure,VDR inh
Cn1cccc1/C=N/n1c(-c2ccccc2)n[nH]c1=S,21%
COc1ccc(CCNC(=O)c2ccc3c(c2)N(Cc2ccccc2F)C(=O)c2ccccc2S3(=O)=O)cc1OC,-12%
CCc1nnc(NC(=O)C2c3ccccc3Oc3ccccc32)s1,-12%
O=S(=O)(Nc1nc2ccccc2nc1N1CCc2ccccc2C1)c1ccc(Cl)cc1,-12%
N/C(=N\OC(=O)CCCN1C(=O)c2ccccc2C1=O)c1ccc(Br)cc1,-23%
CC(C)NS(=O)(=O)c1ccc(OCC(=O)N2CCN(c3ccccc3F)CC2)cc1,36%[activator]
O=[N+]([O-])c1cc2c(c3cccnc13)COCO2,-4%
C=C(C)Cn1c(SCC(=O)Nc2cccc(C)c2)nc2sc3c(c2c1=O)CCCC3,-30%
CCC(C)(C)NC(=O)C(c1ccccc1Cl)N(C(=O)CCC(=O)Nc1cc(C)on1)c1ccc(NC(C)=O)cc1 (stereo not drawn),-1%
CCN1C(=O)N[C@@H](c2cccs2)C(C(=O)OC)=C1C,-5%
CCCOc1ccccc1C(=O)N1CCCCC1CCN1CCOCC1 (stereo not drawn),9%
COC(=O)CSc1nc2cc(C)ccc2cc1C#N,0%
Cc1oc2c(c1C(=O)Nc1ccc(C(=O)O)cc1)CCCC2,0%
Cc1ccc(-c2csc(NC(=O)C3CC=CCC3C(=O)O)c2C(=O)OC(C)C)cc1 (stereo not drawn),8%
CCOc1ccccc1OCCCC(=O)Nc1ccc(Cl)c(S(=O)(=O)N2CCOCC2)c1,1%
CSc1ccc(CNc2ccc(Cl)cc2)cc1,-1%
Cc1ccnc2c1ccc1ccccc12,1%
CC1CC(=O)N(C)c2cc([N+](=O)[O-])ccc2N1 (stereo not drawn),-6%
COc1cccc(-c2nnn(CC(=O)N3CCC(C)CC3)n2)c1,-8%
CCS(=O)(=O)N1CCc2cc(C(=O)NCc3ccccc3OC)ccc21,5%
CCOC(=O)c1sc2nc(N3CCOCC3)c3c(c2c1N)CCCC3,-8%
Cc1ccc(C(=O)OCC(=O)NNC(=O)c2ccc([N+](=O)[O-])cc2)o1,-15%
COc1ccc(-c2c(O)c3cc(O)cc(O)c3oc2=O)cc1,14%
CCOC(=O)CNC(=O)c1cc2c(=O)[nH]c3ccc(C)cc3c2s1,-2%
CC(=O)Nc1ccc(NC(=O)Cn2c(=O)n(-c3ccc(F)cc3)c(=O)c3oc4ccccc4c32)cc1,12%
COc1ccccc1-c1cc(C(F)(F)F)nc(S(=O)(=O)CCCC(=O)Nc2ccc(F)cc2F)n1,56µM*
Cc1cc(NC(=O)CSc2nnc(-c3ccncc3)n2Cc2ccccc2)n(-c2ccccc2)n1,-10%
Cc1ccccc1NC(=O)C(C)OC(=O)CCC(=O)N(CC(C)C)c1c(N)n(CC(C)C)c(=O)[nH]c1=O (stereo not drawn),3%
COc1ccc(C)cc1NC(=O)C1CCCN(S(=O)(=O)c2cccs2)C1 (stereo not drawn),3%
Cc1ccc2c(C)c(C(=O)Nc3nnc(C)s3)oc2c1,-1%

Some of these compounds in order of their number in VDR inh, descending.
structure,VDR inh
Cc1cc(C)c(NC(=O)CSc2nc(=O)n(Cc3ccncc3)c3c2CCC3)c(C)c1,3%
Cc1cccc(N2C(=O)CSC23C(=O)N(CC(=O)Nc2cccc(Cl)c2)c2ccccc23)c1 (stereo not drawn),1%
Cc1ccc2c(C)c(C(=O)Nc3nnc(C)s3)oc2c1,-1%
CCOC(=O)CNC(=O)c1cc2c(=O)[nH]c3ccc(C)cc3c2s1,-2%
CCN1C(=O)N[C@@H](c2cccs2)C(C(=O)OC)=C1C,-5%
COc1cccc(-c2nnn(CC(=O)N3CCC(C)CC3)n2)c1,-8%

Printed as active in VDR inh, of those listed so far:
structure,VDR inh
COc1ccccc1-c1cc(C(F)(F)F)nc(S(=O)(=O)CCCC(=O)Nc2ccc(F)cc2F)n1,56µM*

Additional records:
| Compound | VDR inh |
| --- | --- |
| CC1(C)CC(=O)C2=C(C1)N(CCN1CCOCC1)C1=C(C(=O)CC(C)(C)C1)C2c1cccc(F)c1 | 5% |
| CN1CCN(/C=N/C2=C(C#N)C(c3ccccc3)C3=C(CC(C)(C)CC3=O)O2)CC1 (stereo not drawn) | -7% |
| COc1ccc(NC(=O)Cn2c(C(C)C)nc(C)cc2=O)cc1Cl | -1% |
| NNC(=O)c1nn(-c2ccc(Cl)cc2)cc1O | ? |
| O=C(CCCSc1nc2sc3c(c2c(=O)[nH]1)CCC3)NCCO | 5% |
| COc1ccc(C(=O)OCC(=O)NC2CC2)cc1OC | 1% |
| COc1ccc(C(CNC(=O)CSc2ccccc2F)N2CCOCC2)cc1 (stereo not drawn) | 24% |
| CCc1ccc(OCC(=O)N(CC)CC)cc1 | 1% |
| CC(=O)Oc1ccc2c(=O)c(Oc3ccccc3)c(C)oc2c1OC(C)=O | 6% |
| COc1ccccc1-n1c(CNC(=O)c2ccc(S(=O)(=O)N3CCOCC3)cc2)n[nH]c1=S | -23% |
| CCC(C)(C)NC(=O)C1CCC(CNS(=O)(=O)c2cccc3nsnc23)CC1 (stereo not drawn) | -10% |
| CC(C)CNC(=O)COC(=O)c1ccc(Cl)c(S(N)(=O)=O)c1 | -7% |
| Cc1ccc(N2CCN(C(=O)c3ccc(Nc4nc5ccccc5n5nnnc45)cc3)CC2)c(C)c1 | -10% |
| O=c1[nH]c(NC2CCCCC2)nnc1Cc1ccccc1 | -17% |
| COc1ccc(N2C(=O)CC(Nc3ccc(N4CCOCC4)cc3)C2=O)c(OC)c1 (stereo not drawn) | 3% |
| COc1cc2c(cc1OC)C(c1ccc(C)o1)CC(=O)N2 (stereo not drawn) | -4% |
| CCCCc1ccc(N2C(=O)[C@@H]3C(CC(N)=O)NC4(C(=O)Nc5ccc(F)cc54)[C@@H]3C2=O)cc1 (stereo partly drawn) | -16% |
| Cc1c(CCOC(=O)CC23CC4CC(CC(C4)C2)C3)sc[n+]1CC(=O)c1ccccc1 | -13% |
| COc1cccc(CCN2C(=O)C(=O)N([C@@H](CNCc3ccccc3)Cc3ccccc3F)C[C@@H]2C(C)(C)C)c1 | -27% |
| O=C(CNC(=O)c1ccccc1)OCc1cc(=O)n2nc(C3CC3)sc2n1 | 10% |
| O=C(CSc1cccs1)Nc1cccc2ccccc12 | -16% |
| CCOC(=O)c1ccc(N/C=C/C(=O)c2ccco2)cc1 | 14% |
| O=C(CCC(=O)c1ccccc1)NCCOc1ccccc1 | 0% |
| O=C(Nc1cc(Cl)ccc1Cl)c1ccc(-c2ccccc2)cc1 | -12% |
| Clc1ccccc1-c1nnc(-c2cccnc2)o1 | 11% |
| COc1ccc(C(=O)Nc2cccc(C(=O)N/N=C/c3ccc(OC)cc3OC)c2)cc1 | 0% |
| CCCS(=O)(=O)N1CCN(S(=O)(=O)c2ccccc2)CC1 | 13% |
| Cc1ccccc1-c1noc(-c2ccc(NCc3cccnc3)c([N+](=O)[O-])c2)n1 | 22% |
| Cc1ccc(OCCn2c(=O)n(C)c3ccccc32)cc1 | 18% |
| CCOC(=O)C1(Cc2cccc(Cl)c2)CCCN(C(=O)c2c(CC)noc2C)C1 (stereo not drawn) | -7% |
| Cc1csc2c(SCC(=O)NNS(=O)(=O)c3cccc(C(F)(F)F)c3)ncnc12 | 5% |

A run of entries from further up, for reference:
| Compound | VDR inh |
| --- | --- |
| COC(=O)Nc1ccc(S(=O)(=O)NCCCCCC(=O)O)cc1 | 2% |
| Cc1ccc(S(=O)(=O)N(CC(=O)Nc2ccccc2-c2ccccc2)c2ccc(C)cc2C)cc1 | -11% |
| NC(=O)c1oc2ccc(Cl)cc2c1N | 12% |
| Cc1ccc(Sc2ncccc2COC(=O)NC(C)C)cc1 | 17% |
| Cc1n[nH]c(C)c1C(=O)CC1(O)C(=O)N(Cc2ccccc2)c2ccc(Br)cc21 (stereo not drawn) | 4% |
| Cc1cccc(N2C(=O)CSC23C(=O)N(CC(=O)Nc2cccc(Cl)c2)c2ccccc23)c1 (stereo not drawn) | 1% |
